Screening results deposited in PubChem BioAssay by National Center for Advancing Translational Sciences (NCATS).
12-LOX inh = blocks human arachidonate 12S-lipoxygenase | P18054 | actives 1.1% (n = 580,000) | AID 1671190 | Potency, µM (series often up to 108 µM), without a hit: at the top dose activity change, negative = inhibition, usual class: inhibitors | purified 12hLO, xylenol orange hydroperoxide absorbance; also: potency is read from the fitted curve at half-maximal effect; % is scaled to controls: 0 for no effect and ±100 for the full control effect
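Hydroperoxide product was detected by ferrous iron/xylenol orange as the 573 to 405 nm absorbance ratio. Arachidonic acid at 40 uM (final) was turned over for 30 min at room temperature by 150 nM human 12hLO, pH 7.0 Hepes buffer, after 15 min compound preincubation.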
Anesthetic bind = candidate novel general anesthetic via apoferritin binding | P02791 | apoferritin/1-aminoanthracene competitive binding, fluorescence | Potency, µM (series often up to 77.5 µM), without a hit: at the top dose activity change, negative = displacement, actives largely listed as inhibitors | actives 0.074% (n = 350,000); also: potency is read from the fitted curve at half-maximal effect; % is scaled to controls: 0 for no effect and ±100 for the full control effect; nearly all actives have a fitted effect of over 20% in size
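In PBS, apoferritin at 10 uM is loaded with 1-AMA from a 50% saturated solution. After 10 min of compound exposure at ambient temperature, reduced 535 nm fluorescence indicates probe displacement.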
TRHR ag = TRH receptor (human) agonism; TRHR cells, calcium flux fluo-8, FDSS agonist mode; activation, % at 2 µM; P34981; actives 0.18% (n = 360,000); in the data active = activation above about 30%; also: 0% is about no effect
Target sequence (P34981 whole entry, looked up): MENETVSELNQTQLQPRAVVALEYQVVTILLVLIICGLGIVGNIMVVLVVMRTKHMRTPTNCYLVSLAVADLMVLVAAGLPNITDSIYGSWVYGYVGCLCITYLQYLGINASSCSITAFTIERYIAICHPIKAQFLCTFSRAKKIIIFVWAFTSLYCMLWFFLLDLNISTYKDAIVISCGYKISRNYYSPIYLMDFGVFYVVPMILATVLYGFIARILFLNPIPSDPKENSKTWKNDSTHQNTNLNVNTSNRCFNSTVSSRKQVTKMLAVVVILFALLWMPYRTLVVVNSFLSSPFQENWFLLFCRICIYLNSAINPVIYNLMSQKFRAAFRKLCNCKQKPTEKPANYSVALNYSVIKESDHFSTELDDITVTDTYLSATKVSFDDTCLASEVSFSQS
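Agonist-mode FDSS calcium read (Ex 480/Em 530, 1 s cycles) in 1536-well TRHR cells with fluo-8 dye, after 10-cycle baseline and 23 nL compound addition; TRH at EC20 (10 nM final) added afterwards for the enhancer phase.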
ERG Ets-DNA blk = inhibitors of human ERG Ets domain-DNA interaction; P11308; fluorescence polarization, His-ERG Ets domain / labelled DNA; Potency, µM (series often up to 76.9 µM), without a hit: at the top dose FP activity, negative = inhibition, hits mostly inhibitors; actives 0.028% (n = 370,000); AID 624246; active = well fitted inhibition curve with a large enough effect in the polarisation, with a control signal flat; inconclusive = small, poorly fitted or top-dose-only effect, or effect the other way, or a change in a side signal; inactive = no such curve, though single readings can be large or run the other way; the % refers to the polarisation;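 also: polarization taken with two DNA probes labelled with fluorescein and Texas red; potency is read from the fitted curve at half-maximal effect; % of control where 0% means no effect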
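His-tagged ERG Ets domain (1 uM in the protein solution; 300mM KCl, 50mM Tris-HCl, 1mM EDTA, 1mM DTT, pH 7.5) received compound, then a probe mix of 5 nM fluorescein-DNA and 100nM Texas-615-DNA. Fluorescence polarization was read for both dyes.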
Starred values were filed as active, the others as inactive; ? = inconclusive; nt = no result given; & = joins results of further samples; [ ] = dose if it differs, or a comment. Unless noted, calls follow the shape of the dose curve; as a rule, active = well fitted curve in the direction sought with a large enough effect; inconclusive = small, poorly fitted or top-dose-only effect, or another doubt; inactive = no such curve, though single readings can be large; an effect the other way counts as inactive or inconclusive.

SMILES	12-LOX inh	Anesthetic bind	TRHR ag	ERG Ets-DNA blk
O=C(O)c1cccc(-n2cccc2/C=C2\SC(=O)N(Cc3ccccc3F)C2=O)c1	?	-2.2%	-0.1	4.2%
O=C(O)CCCCC1CCSS1 (configuration not stated)	?	-5.3%	0.1	-11.5%
CN(C)C(=O)COC(=O)c1ccc(S(=O)(=O)NCc2ccco2)cc1	-14.2%	-4.5%	0.6	13.4%
O=C(O)c1csc(N/N=C/c2ccc(Br)cc2)n1	35.5µM*	-6.6%	0.1	4.2%
CN(CCOC(=O)/C=C/c1ccco1)Cc1ccccc1	-12.0%	7.0%	0.6	12.9%
O=C(Nc1cccc(C(=O)Nc2ccc(S(=O)(=O)O)c3cc(S(=O)(=O)O)cc(S(=O)(=O)O)c23)c1)Nc1cccc(C(=O)Nc2ccc(S(=O)(=O)O)c3cc(S(=O)(=O)O)cc(S(=O)(=O)O)c23)c1	6.5%&53.9%	-11.7%	nt	nt
N#Cc1ccccc1CN1C(=O)S/C(=C/c2cccn2-c2ccc(C(=O)O)cc2)C1=O	-15.0%	-6.1%	-0.2	-9.3%
CN(C)S(=O)(=O)c1cccc(NC(=O)COC(=O)/C=C/c2ccc(Br)o2)c1	-28.0%	-4.4%	-1.2	8.8%
O=C(COC(=O)c1ccc(Cl)c(S(=O)(=O)N2CCCC2)c1)NCc1cccs1	1.1%	-16.4%	-0.2	4.4%
Cc1ccc(C(=O)OC(C(=O)O)C(OC(=O)c2ccc(C)cc2)C(=O)O)cc1 (configuration not stated)	-28.6%	nt	-0.3	15.3%
COc1c(-c2ccc(O)cc2)oc2cc(O)cc(O)c2c1=O	-22.0%	-10.2%	-0.8	-5.9%
CC(C)[C@H](NC(=O)Cc1ccccc1)C(=O)OCc1cc(=O)n2c(n1)sc1ccccc12	?	-11.7%	-0.8	13.3%
O=C(COC(=O)c1ccc(NS(=O)(=O)c2cccs2)cc1)NCc1ccco1	nt	8.2%	0.0	-10.1%
Cc1cccc(C(=O)N[C@H](C(=O)OCc2cc(=O)n3c(n2)sc2ccccc23)C(C)C)c1	?	-20.6%	-1.9	-4.3%
COc1ccc(N2CCN(C(=O)Cc3ccc(S(=O)(=O)N4CCOCC4)s3)CC2)cc1	-13.5%	-24.0%	-0.1	4.8%
O=C(COC(=O)C1CC2C=CC1C2)NCc1ccco1 (configuration not stated)	181.1%[activator]	-8.8%	-0.3	-5.6%
NC(=O)COC(=O)c1ccc(S(=O)(=O)NCc2ccco2)cc1	-0.6%	-8.9%	0.8	9.8%
O=c1cc(O)cc(/C=C/c2ccc(O)c(O)c2)o1	?	nt	nt	nt

A draw from above in order of number of heavy atoms, smallest number first:
SMILES	12-LOX inh	Anesthetic bind	TRHR ag	ERG Ets-DNA blk
O=C(O)CCCCC1CCSS1 (configuration not stated)	?	-5.3%	0.1	-11.5%
O=c1cc(O)cc(/C=C/c2ccc(O)c(O)c2)o1	?	nt	nt	nt
O=C(COC(=O)C1CC2C=CC1C2)NCc1ccco1 (configuration not stated)	181.1%[activator]	-8.8%	-0.3	-5.6%
CN(CCOC(=O)/C=C/c1ccco1)Cc1ccccc1	-12.0%	7.0%	0.6	12.9%
COc1c(-c2ccc(O)cc2)oc2cc(O)cc(O)c2c1=O	-22.0%	-10.2%	-0.8	-5.9%
NC(=O)COC(=O)c1ccc(S(=O)(=O)NCc2ccco2)cc1	-0.6%	-8.9%	0.8	9.8%
CN(C)C(=O)COC(=O)c1ccc(S(=O)(=O)NCc2ccco2)cc1	-14.2%	-4.5%	0.6	13.4%
CN(C)S(=O)(=O)c1cccc(NC(=O)COC(=O)/C=C/c2ccc(Br)o2)c1	-28.0%	-4.4%	-1.2	8.8%
O=C(COC(=O)c1ccc(Cl)c(S(=O)(=O)N2CCCC2)c1)NCc1cccs1	1.1%	-16.4%	-0.2	4.4%
O=C(O)c1cccc(-n2cccc2/C=C2\SC(=O)N(Cc3ccccc3F)C2=O)c1	?	-2.2%	-0.1	4.2%
COc1ccc(N2CCN(C(=O)Cc3ccc(S(=O)(=O)N4CCOCC4)s3)CC2)cc1	-13.5%	-24.0%	-0.1	4.8%
Cc1cccc(C(=O)N[C@H](C(=O)OCc2cc(=O)n3c(n2)sc2ccccc23)C(C)C)c1	?	-20.6%	-1.9	-4.3%
O=C(Nc1cccc(C(=O)Nc2ccc(S(=O)(=O)O)c3cc(S(=O)(=O)O)cc(S(=O)(=O)O)c23)c1)Nc1cccc(C(=O)Nc2ccc(S(=O)(=O)O)c3cc(S(=O)(=O)O)cc(S(=O)(=O)O)c23)c1	6.5%&53.9%	-11.7%	nt	nt

Not all compounds are listed, so the mix of outcomes need not match the whole.
